Ba CapD inh: inhibitors of Bacillus anthracis CapD enzyme; z-score (concentration not given with the values); 0.23% of 140,000 active; purified CapD enzyme, fluorescence intensity read-out; hits give low values; some hits fall short of the stated cut;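 active = z-score under -4 in either of two replicates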;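 also: stock transfer was 100 nL into about 40 µL; score is relative to mean and spread of the plate; one replicate is shown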
AID504770: E. coli YBA685 growth inhibition, screen for V. cholerae RctB inhibitors; 0.27% of 130,000 active; z-score (concentration not given with the values); AID 504770; E. coli YBA685 rctB-dependent plasmid, OD600 growth, 3 h; hits give low values;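 active = z-score under -2 on both plates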;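 also: wells of about 30 µL received 100 nL stock; score is relative to mean and SD of the test wells; the first replicate is given; strong numbers were not always called active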
The depositor's hits bear a star; i = inactive; x = not tested or not shown; & = joins results of further samples.

SMILES	Ba CapD inh	AID504770
CN(C)S(=O)(=O)c1cccc2c1NCC2	0.45	x
C=CCNc1nc(C(=O)OCC(=O)N2CCCC2=O)cs1	x	-0.2
CC(C(=O)Nc1ccc(S(N)(=O)=O)cc1)N(C)CC1COc2ccccc2O1 (configuration not stated)	x	-0.2
O=C1C2ON(c3ccccc3)C(c3ccncc3)C2C(=O)N1c1cccc(Br)c1 (configuration not stated)	0.32	-0.25
Cc1cccc(-n2c3nc(=O)[nH]c(=O)c-3cc3c(Cl)cccc32)c1	-0.14	x
Cc1ccc(SCCC(=O)N2CCC(C(N)=O)CC2)cc1	0.08	-0.85
CCCCN(CC)C(=O)c1ccc2c(=O)n(CC(C)C)c(=S)[nH]c2c1	x	-0.35
C/C=C/C(=O)Nc1ccc(NC(C)=O)cc1	0.095	0.4
CN1C2CCC1CC(NC(=O)CSc1ccc(F)cc1)C2 (configuration not stated)	0.82	0.45
Cc1nn(CC(=O)C23CC4CC(CC(C4)C2)C3)c(=O)c(C#N)c1C	x	-0.55
CCOC(=O)C1(C)C=C(Nc2ccc(OCC)cc2)C(=O)N1c1ccccc1 (configuration not stated)	-0.33	x
Cc1cccc(Nc2nc(O)c(C3=c4cc(Br)ccc4=NC3=O)s2)c1C	0.69&1.2	x
O=C(NC1=NCCS1)c1ccc2c(c1)OCO2	0.14	0.55
COc1ccc(C/C(C)=N/Nc2nc(C)cc(=O)[nH]2)cc1	x	-0.35
Cc1cc(C(=O)CN2CCN(c3cccc(Cl)c3)CC2)c(C)n1-c1ccc(S(N)(=O)=O)cc1	x	0.45
COCCNC(=O)c1cn(C(C)c2ccccc2)nn1 (configuration not stated)	x	2
Cc1ccc(C)n1-c1ccc([N+](=O)[O-])cc1	0.34	x
CCCCn1c(CCNC(=O)Cc2ccccc2)nc2ccccc21	-0.57	-0.65
C=CCNC(=O)/C(=C/c1ccc([N+](=O)[O-])cc1)NC(=O)c1ccco1	-1.5	x
CC(C)CCn1c(COc2ccccc2)nn(CCC#N)c1=S	x	-1.1
N#Cc1ccccc1OCC(=O)N1CCC(Cc2ccccc2)CC1	0.57	-0.1
N#Cc1ccc(OCC(=O)NCCOc2ccccc2F)cc1	x	0.1
c1ccc2oc(-c3ccnc4ccccc34)nc2c1	i	-0.25
C(=C\CN1CCCCC1)/CN1CCCCC1	-0.57	1.5
Cc1cc(OCC(=O)N2C(C)CCCC2C)ccc1Cl (configuration not stated)	x	0.35
FC(F)(F)c1cc(C(F)(F)F)c2ccc3nnc(-c4ccccc4)n3c2n1	6.4	x
O=C(Nc1cccc(Cl)c1)c1ccc(S(=O)(=O)N2CCCC2)cc1	0.06	-0.4
Cc1cccc(C)c1NC(=O)CSc1nnc(C)n1Cc1ccccc1	x	0.25
Fc1ccc(-c2nc3n(n2)Cc2ccccc2-3)cc1	0.05	-0.5
Cc1ccc(CNC(=O)c2ccccc2NC(=O)C(F)(F)F)cc1	-0.45	-0.55
Cc1c(C(=O)N2CCN(c3cccc(Cl)c3)CC2)sc2ncn(CC(=O)N3CCCCC3)c(=O)c12	-0.01	x
Cc1nc2ccccc2nc1OCC(=O)N1CCN(c2ccccc2)CC1	x	0
O=S(=O)(CCO)c1ccc(C(F)(F)F)cn1	0.7	-0.05
CC(SCc1ccc(Br)cc1)C(=O)O (configuration not stated)	x	0.05
CCOC(=O)c1ccc(NC(=O)c2sc(NC(=O)c3ccc(F)cc3)c(C(=O)OCC)c2C)cc1	13	x
CCN(CC(=O)NC1CCS(=O)(=O)C1)C(=O)c1ccccc1-c1ccccc1 (configuration not stated)	x	-0.5
O=C(Nc1ccccc1)N1CCN(c2nc(-c3ccccc3)ns2)CC1	0.33	-0.2
CNC(=O)NC(=O)C(C)Sc1nc2ccccc2s1 (configuration not stated)	x	-0.55
Cc1cc(C)n(C2=NCCN2S(C)(=O)=O)n1	1.3	0.35
CCc1ccc(NCc2nnc(-c3ccccc3)o2)cc1	-0.72	-0.5
CN(C)S(=O)(=O)c1ccc(S(=O)(=O)N(CC(=O)Nc2ccccc2)C2CC2)cc1	x	1
CC(C)N(CCc1ccncc1)C(=S)NCc1ccccc1	-1.5	-1.1
CCOC(=O)c1c(NC(=O)/C=C/c2ccc(OC)cc2)sc2c1CCC2	-0.12	0.5
O=C1NC(=O)C(c2ccccc2)C(=O)N1	0.46	-0.55
O=C1c2cccc3cccc(c23)C(=O)N1c1ccccc1	16	-0.95
CCOC(=O)c1ccc(-c2ccc(/C=C(\C#N)C(=O)NCc3cccs3)o2)cc1	x	0.05
CCCCCn1c(SCC(=O)N(C)Cc2ccccc2)nc2cc(C(=O)NCc3ccco3)ccc2c1=O	0.22	x
CCN(CC)Cc1c(O)ccc2c1O/C(=C\c1ccccc1Cl)C2=O	x	0.3
Cc1ccc(Cl)cc1N1CCN(C(=O)C2CC2C(=O)O)CC1 (configuration not stated)	0.3	x
CC(=O)N(c1ccc(C)c(C)c1)c1nc(CSc2nnnn2C2CCCC2)cs1	x	-0.25
COC(=O)COc1c(C)cc(Br)cc1Br	0.65	1.2
CNC(=O)n1cc(C)c(-c2ccccc2)n1	-0.74	-0.7
CNC(=O)NC(=O)C(C)Sc1nncn1-c1ccccc1 (configuration not stated)	x	1.9
OC(CN1CCN(c2ccc(C(F)(F)F)cn2)CC1)c1ccc2c(c1)OCCO2 (configuration not stated)	0.32	-0.25
COC(=O)c1[nH]nc2c1C(=O)N(Cc1ccccc1)C2=O	-0.54	-1.1
S=c1oc(Cc2ccccc2)nn1CN1CCOCC1	-0.43	2.7
O=c1oc2ccccc2n1Cc1ccc(Cl)cc1	x	0.15
O=C(NCC12CC3CC(CC(C3)C1)C2)N1CCN(CCO)CC1	-0.39	0.5
CC(C)C(=O)Nc1c2c(nn1C(C)(C)C)CS(=O)C2 (configuration not stated)	-1.1	1.6
O=C(Nc1cccc(-c2cn3cccnc3n2)c1)c1ccccc1	114	-0.15

One compound at a time (already shown). Order of values: Ba CapD inh, AID504770
S=c1oc(Cc2ccccc2)nn1CN1CCOCC1 across the screens: -0.43, 2.7
Cc1ccc(Cl)cc1N1CCN(C(=O)C2CC2C(=O)O)CC1 (configuration not stated) across the screens: 0.3, x

Remaining list, next part.
SMILES	Ba CapD inh	AID504770
COc1cc2c3cc1Oc1cc(ccc1O)C[C@@H]1c4c(cc(OC)c(O)c4Oc4cccc(c4)C[C@@H]3N(C)CC2)CC[N+]1(C)C	1	x
CN(c1ccc(O)cc1)c1nc(O)c(C2=c3ccccc3=NC2=O)s1	-1.5	-0.45
CCOc1ccccc1N(C)S(=O)(=O)c1ccc2[nH]cc(C(=O)N3CCN(c4ccc(OC)cc4)CC3)c(=O)c2c1	-0.57	x
O=C(Nc1ccc(N2CCN(Cc3ccccc3Cl)CC2)cc1)c1ccco1	-0.15	-0.5
Cc1ccc(C(=O)c2oc3ccc(Cl)cc3c2N)cc1	-0.47	x
CCN(CC)C(=O)/C=C/c1cccc2ccccc12	9.6	0.25
CC1=C(C(=O)N(C)C)C(c2ccc(Br)cc2)n2c(nc3ccccc32)N1 (configuration not stated)	-0.64	2.1
Cc1ccccc1N=C1SCCCN1C(=O)c1ccc2c(c1)OCO2	x	-0.6
N#Cc1cc(C#N)c(SCC(=O)OCN2C(=O)c3ccccc3C2=O)nc1N	-0.29	x
c1ccc2c(OCc3nn[nH]n3)cccc2c1	0.56	-0.2
Cc1cc(N2CCC(NS(=O)(=O)c3ccc(Cl)cc3)CC2)nc(C)n1	x	-0.25
CCn1c2c(c3cc(OCC(C)C)ccc31)CCCC2=O	3	1.8
O=C(OCc1nnc(-c2ccccc2)o1)[C@@H]1CCCN1S(=O)(=O)c1ccc(Cl)cc1	x	0
COc1ccc(OC)c(C2CC(c3ccc(OC)c(OC)c3)=NN2C(=O)CCCC(=O)O)c1 (configuration not stated)	3.7	x
COc1ccc(C2=NN(C(=O)CCC(=O)O)C(c3cc(OC)ccc3OC)C2)cc1 (configuration not stated)	0.64	x
O=C(Nc1cccc(Cl)c1)N1CCC(c2nc3ccccc3s2)CC1	0.22	x
COc1ccc(C(=O)OCC(=O)N2CCCC2=O)c(OC)c1	x	-2.2
Cc1nc(=O)cc(-c2ccccc2)n1-c1ccccc1	-0.17	-0.1
Cc1sc2ncnc(OCC(=O)N3CCN(S(=O)(=O)c4ccc(Cl)cc4)CC3)c2c1C	x	0.75
O=C1O/C(=C\N2CCN(c3ccccc3)CC2)c2ccccc21	-0.62	-0.3
Cn1c(=N)n(CCCOc2ccc(F)cc2)c2ccccc21	-3.6	0.15
CCOC(=O)c1c(C)n(-c2ccccc2)c2ccc(OC(=O)c3ccc(S(=O)(=O)N(CC)CC)cc3)cc12	-0.39	x
COC(=O)C12CC3CC(CC(C(=O)OC)(C1)C3=O)C2=O	x	1.8
CC1CCCC(C)N1Cn1nc2sc3ccccc3n2c1=S (configuration not stated)	x	-0.45
O=C(O)c1sc2ccccc2c1Nc1ccccc1	-0.25	1.6
CS(=O)(=NS(=O)(=O)c1ccccc1)c1ccccc1 (configuration not stated)	0.19	-0.85
CCOC(=O)N1CCC(NC(=O)Cn2nc(CC)n3c(cc4sc(CC)cc43)c2=O)CC1	-0.15	-0.35
C=Cc1ccc(C=C)cc1	x	-0.65
O=c1c2ccccc2nnn1CN1CCCC1c1ccc2c(c1)OCCCO2 (configuration not stated)	x	1.6
CNc1nc2cccnc2s1	-0.19	-0.35
CC1CC2(C)CC(C)C1(COC(=O)Nc1ccccc1)CO2 (configuration not stated)	x	-0.3
CCN(CC)P1(=O)OC(c2cc(OC)c(OC)c(OC)c2)=Nc2c1c(C)nn2-c1ccccc1 (configuration not stated)	x	-0.15
COC(=O)c1ccccc1NC(=O)c1ccccc1Cl	-0.095	x
CC1=C(C(=O)OC(C)C)C2(C(=O)Nc3ccccc32)C(C(=O)OC(C)C)=C(N)O1 (configuration not stated)	-0.11	x
N#Cc1ccc(OCc2nnc3n2CCCCC3)cc1	-0.68	-0.8
COCCOc1nc2ccccc2nc1C	13	-0.95

Grouped by structure: the entries above containing a COOH group.
SMILES	Ba CapD inh	AID504770
CC(SCc1ccc(Br)cc1)C(=O)O (configuration not stated)	x	0.05
Cc1ccc(Cl)cc1N1CCN(C(=O)C2CC2C(=O)O)CC1 (configuration not stated)	0.3	x
COc1ccc(OC)c(C2CC(c3ccc(OC)c(OC)c3)=NN2C(=O)CCCC(=O)O)c1 (configuration not stated)	3.7	x
COc1ccc(C2=NN(C(=O)CCC(=O)O)C(c3cc(OC)ccc3OC)C2)cc1 (configuration not stated)	0.64	x
O=C(O)c1sc2ccccc2c1Nc1ccccc1	-0.25	1.6

Further structures
SMILES	Ba CapD inh	AID504770
O=C1/C(=C\c2ccc([N+](=O)[O-])cc2)N2CCC1CC2	-0.76	x
O=C(OCc1cc2c(cc1Br)OCO2)c1cnccn1	x	-0.35
CCS(=O)(=O)N1CCc2cc(C(=O)Cn3ncc(Cl)c(Cl)c3=O)ccc21	x	-1.6
COc1ccc(C(=O)Cn2c(Br)nc3c2c(=O)n(C)c(=O)n3C)cc1	0.17	x
c1ccn2c(SCc3ccc4c(c3)OCO4)nnc2c1	-0.32	0.45
CC[C@@]12CCCN3CC[C@]4(c5cccc(OC)c5N(C(C)=O)[C@@H]4CC1)[C@H]32	-0.2	-1.1
CC(C)(C)c1oc(C(=O)O)cc1COCC(F)(F)F	0.23	0.15
O=c1[nH]c(C2CCN(S(=O)(=O)Cc3ccccc3)CC2)nc2c1nnn2Cc1cccc(Cl)c1	x	-1.2
Oc1ccc2cc(Br)ccc2c1	x	0.1
CN1/C(=C\C(=O)CSCCO)C(C)(C)c2ccccc21	x	-0.25
Cc1ccsc1C(=O)OCC(=O)NC1CC1	0.025	-0.15
CCN(CC)C(=O)C1c2ccccc2Oc2ccccc21	0.45	-0.55

Part of the list above in a different format:
> CC[C@@]12CCCN3CC[C@]4(c5cccc(OC)c5N(C(C)=O)[C@@H]4CC1)[C@H]32
  Ba CapD inh: -0.2
  AID504770: -1.1

> CC(C)(C)c1oc(C(=O)O)cc1COCC(F)(F)F
  Ba CapD inh: 0.23
  AID504770: 0.15

> O=c1[nH]c(C2CCN(S(=O)(=O)Cc3ccccc3)CC2)nc2c1nnn2Cc1cccc(Cl)c1
  Ba CapD inh: x
  AID504770: -1.2

> Oc1ccc2cc(Br)ccc2c1
  Ba CapD inh: x
  AID504770: 0.1

The list continues.
SMILES	Ba CapD inh	AID504770
CCOP(=S)(OCC)Oc1cc(-c2ccccc2)on1	x	0.3
Cc1nn(-c2ccccc2)c(Oc2ccc(F)cc2)c1/C=N/n1cnnc1	x	-0.25
Cc1ccccc1S(=O)(=O)Cc1ccc(C(=O)NCC2CCN(C(C)c3ccccc3)C2)o1 (configuration not stated)	-0.42	-0.9
CCOn1c(=O)c[n+]([O-])c2ccccc21	2.2	x
COc1ccc(C(=O)Oc2ccc3cc(-c4nc5ccccc5s4)c(=O)oc3c2)cc1	0.5	x
CCN1CCCC1CNc1ncnc2sc3c(c12)CCC3 (configuration not stated)	x	2.2
Cc1cc(C)n(-c2ccc(C(=O)Oc3ccc4c(c3)OCO4)cc2)n1	x	1.4
Cc1ccc(S(=O)(=O)NC(=NC2CCCCC2)c2ccccc2)cc1	-0.12	-0.65
O=C(CC(NC1CCCC1)C(=O)O)Nc1cccc(Cl)c1 (configuration not stated)	0.04	0.8
N#Cc1ccccc1NC(=O)CN1C(=O)c2ccccc2C1=O	-1.2	0.5
c1ccc(-c2nonc2-c2ccccc2)cc1	-0.14	-0.7
Cc1cc(NC(=O)CSc2nnc(Cc3cccn3C)n2C)no1	-0.7	-0.05
Cc1ccc(NC(=O)Cn2c3ccccc3c(=O)c3cc([N+](=O)[O-])ccc32)c(Br)c1	-0.57	x
NC(=O)Cn1cnc2c(cnn2-c2ccc(Cl)cc2)c1=O	x	0.45
O=C(c1ccccc1)C(Sc1nnc(-c2ccc3c(c2)OCO3)o1)c1ccccc1 (configuration not stated)	x	-0.15
O=C1C2C(c3ccc(Br)cc3)OC3(C(=O)c4ccccc4C3=O)C2C(=O)N1c1ccccc1Cl (configuration not stated)	-0.66	x
O=C1ON=C(c2ccccc2)/C1=C\c1ccc2c(c1)OCO2	-0.36	-0.05

Source: PubChem BioAssay (ICCB-Longwood Screening Facility, Harvard Medical School)
